High-throughput results as filed in PubChem.
Env fusion inh – inhibitors of HIV-1 Env-driven cell-cell fusion, primary screen, HeLa-JRFL effector, CEM21 target cells, luciferase. inhibition, % at 12.3 µM. 360,000 compounds, 1.1% hits. AID 651610, 2012;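 active = mean replicate inhibition score of at least 50 and every replicate individually at or above 50; inconclusive = only one of the two criteria met; inactive = mean below 50 and not all replicates reaching 50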;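 note: 0% = plate neutral controls and 100% = maraviroc near 300 nM; one replicate is shown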
UUG fidelity – modulators of yeast start codon fidelity, primary screen, whole organism, S. cerevisiae, single point, plate reader. S. cerevisiae UUG-firefly luciferase reporter, luminescence/redox ratio. activity score, % at 18.7 µM. 350,000 compounds, 0.13% hits. AID 602363, 2012;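 active = replicate mean at a twofold rise or more, about +100% in these data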;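 note: firefly luciferase made from a UUG start codon reports start codon fidelity; reporter light over untreated wells divided by growth signal over untreated wells; some hits fall short of that in this replicate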
The depositor's hits bear a star; ? = inconclusive; [ ] = another dose, or the depositor's remark. Some of the compounds tested; the hit share may differ from the screen's.

Molecule | Env fusion inh | UUG fidelity
CN(C)CCCNC(=O)C[C@@H]1CC[C@H]2[C@@H](COc3ccc(NC(=O)c4ccc5c(c4)OCO5)cc3C(=O)N2C)O1 | -9[16.7 µM] | -3
O=C(C[C@H]1CC[C@H](NC(=O)C2CCC2)[C@@H](CO)O1)NC1CCC1 | 12[16.7 µM] | -5
Cc1noc(C)c1NC(=O)N(C)C[C@H]1OCCCC[C@@H](C)Oc2ccc(NC(=O)c3ccncc3)cc2C(=O)N([C@H](C)CO)C[C@@H]1C | -2[16.7 µM] | 0
C[C@@H]1CN([C@H](C)CO)S(=O)(=O)c2ccc(-c3ccncc3)cc2O[C@@H]1CN(C)Cc1ccccc1 | ? | -2
C[C@H]1CN([C@@H](C)CO)S(=O)(=O)c2ccc(-c3cccc(C(=O)N(C)C)c3)cc2O[C@H]1CN(C)Cc1ccc2c(c1)OCO2 | 12[16.7 µM] | -5
C[C@H]1CN([C@@H](C)CO)C(=O)c2cccc(NS(C)(=O)=O)c2O[C@H]1CN(C)S(=O)(=O)c1cn(C)cn1 | 10[16.7 µM] | -10
O=C(C[C@@H]1CC[C@@H](NC(=O)c2ccc3c(c2)OCO3)[C@@H](CO)O1)NC1Cc2ccccc2C1 | 1[16.7 µM] | 1
Cc1noc(C)c1NC(=O)N(C)C[C@@H]1OCCCC[C@H](C)Oc2ccc(NC(=O)c3ccncc3)cc2C(=O)N([C@@H](C)CO)C[C@@H]1C | 1[16.7 µM] | -3
C[C@@H]1CCCCO[C@H](CN(C)S(=O)(=O)c2ccc(Cl)cc2)[C@@H](C)CN([C@@H](C)CO)C(=O)c2cc(NC(=O)NC3CCCCC3)ccc2O1 | 13[16.7 µM] | 1
C[C@@H]1CCCCO[C@@H](CN(C)S(=O)(=O)c2cccs2)[C@@H](C)CN([C@@H](C)CO)C(=O)c2cc(NS(C)(=O)=O)ccc2O1 | -21[16.7 µM] | 7

An excerpt from above in order of the UUG fidelity value, descending:
Molecule | Env fusion inh | UUG fidelity
C[C@@H]1CCCCO[C@@H](CN(C)S(=O)(=O)c2cccs2)[C@@H](C)CN([C@@H](C)CO)C(=O)c2cc(NS(C)(=O)=O)ccc2O1 | -21[16.7 µM] | 7
O=C(C[C@@H]1CC[C@@H](NC(=O)c2ccc3c(c2)OCO3)[C@@H](CO)O1)NC1Cc2ccccc2C1 | 1[16.7 µM] | 1
C[C@@H]1CN([C@H](C)CO)S(=O)(=O)c2ccc(-c3ccncc3)cc2O[C@@H]1CN(C)Cc1ccccc1 | ? | -2
Cc1noc(C)c1NC(=O)N(C)C[C@@H]1OCCCC[C@H](C)Oc2ccc(NC(=O)c3ccncc3)cc2C(=O)N([C@@H](C)CO)C[C@@H]1C | 1[16.7 µM] | -3
O=C(C[C@H]1CC[C@H](NC(=O)C2CCC2)[C@@H](CO)O1)NC1CCC1 | 12[16.7 µM] | -5
C[C@H]1CN([C@@H](C)CO)C(=O)c2cccc(NS(C)(=O)=O)c2O[C@H]1CN(C)S(=O)(=O)c1cn(C)cn1 | 10[16.7 µM] | -10

Following part
Molecule | Env fusion inh | UUG fidelity
C[C@H]1CCCCO[C@@H](CN(C)C(=O)Nc2ccccc2)[C@@H](C)CN([C@@H](C)CO)C(=O)c2cc(NS(=O)(=O)c3ccc(Cl)cc3)ccc2O1 | -8[16.7 µM] | 4
COc1ccc(S(=O)(=O)Nc2cccc3c2O[C@H](CN(C)S(=O)(=O)c2ccccc2)[C@@H](C)CN([C@@H](C)CO)C3=O)cc1 | -9[16.7 µM] | -5
C[C@H](CO)N1C[C@H](C)[C@@H](CN(C)Cc2ccccn2)Oc2ncc(C#Cc3ccc(F)cc3)cc2C1=O | -4[16.7 µM] | 9
CO[C@H]1CN(C)C(=O)c2cc(NC(=O)Nc3c(C)noc3C)ccc2OC[C@@H](C)NC[C@@H]1C | 1[16.7 µM] | -9
C[C@H](CO)N1C[C@H](C)[C@@H](CN(C)Cc2ccc3c(c2)OCO3)Oc2ccc(NC(=O)Nc3ccc4c(c3)OCO4)cc2CC1=O | 15[16.7 µM] | 3
COc1ccc(S(=O)(=O)N(C)C[C@H]2Oc3ccc(NC(=O)Nc4ccc(C(F)(F)F)cc4)cc3CC(=O)N([C@@H](C)CO)C[C@H]2C)cc1 | -8[16.7 µM] | -20
Cc1noc(C)c1S(=O)(=O)Nc1ccc2c(c1)CC(=O)N([C@@H](C)CO)C[C@H](C)[C@@H](CN(C)S(C)(=O)=O)O2 | 3[16.7 µM] | -8
C[C@@H]1CCCCO[C@H](CN(C)Cc2ccc(C(F)(F)F)cc2)[C@H](C)CN([C@@H](C)CO)C(=O)c2cc(NC(=O)Nc3ccccc3)ccc2O1 | 40[16.7 µM] | 11
C[C@H](CO)N1C[C@H](C)[C@H](CN(C)C(=O)Nc2ccc(F)cc2)Oc2c(NC(=O)c3cnccn3)cccc2C1=O | 31[16.7 µM] | 5
C[C@H](CO)N1C[C@H](C)[C@H](CN(C)Cc2ccccn2)Oc2cc(C3=CCCCC3)ccc2S1(=O)=O | 17[16.7 µM] | -23
Cc1ccc(S(=O)(=O)N(C)C[C@@H]2Oc3cc(C4=CCCC4)ccc3S(=O)(=O)N([C@@H](C)CO)C[C@H]2C)cc1 | 58*[16.7 µM] | -13
O=C(NCC[C@@H]1CC[C@H](NC(=O)C2CC2)[C@@H](CO)O1)c1cc(Cl)cc(Cl)c1 | 0[16.7 µM] | 5
O=C(Nc1ccc(Cl)cc1)N[C@H]1CC[C@H](CCNS(=O)(=O)c2ccccc2F)O[C@H]1CO | 9[16.7 µM] | 21
Cc1noc(C)c1S(=O)(=O)Nc1ccc2c(c1)C(=O)N([C@@H](C)CO)C[C@H](C)[C@H](CN(C)Cc1ccncc1)OCCCC[C@H](C)O2 | 3[16.7 µM] | -1
O=C(N[C@H]1CC[C@@H](CCn2cc(C3CCCCC3)nn2)O[C@@H]1CO)c1cccnc1 | -8[16.7 µM] | 9
C[C@@H]1CN([C@H](C)CO)S(=O)(=O)c2ccc(-c3ccc(C(=O)N(C)C)cc3)cc2O[C@@H]1CN(C)Cc1ccc2c(c1)OCO2 | -11[16.7 µM] | -6
COc1ccccc1-c1cnc2c(c1)C(=O)N([C@@H](C)CO)C[C@H](C)[C@H](CN(C)Cc1ccncc1)O2 | 8[16.7 µM] | -3
CC(C)N1C(=O)[C@@]2(Cc3ccccc31)c1ccccc1C(=O)N(C1CCCCC1)[C@H]2c1ccc(CO)cc1 | 21[16.7 µM] | 69
O=C(Nc1ccc(C(F)(F)F)cc1)N[C@H]1C=C[C@H](CC(=O)N2CCCCC2)O[C@@H]1CO | 2[16.7 µM] | -8
Cc1noc(C)c1NC(=O)Nc1ccc2c(c1)CC(=O)N([C@@H](C)CO)C[C@H](C)[C@@H](CN(C)S(=O)(=O)c1cccs1)O2 | 25[16.7 µM] | 0
O=C(NCC[C@@H]1CC[C@H](NC(=O)c2cnccn2)[C@@H](CO)O1)c1ccc2c(c1)OCO2 | 7[16.7 µM] | -9
COc1ccc(NC(=O)Nc2ccc3c(c2)C(=O)N([C@H](C)CO)C[C@H](C)[C@H](CN(C)CC2CCCCC2)OCCCC[C@H](C)O3)cc1 | 26[16.7 µM] | 29
O=C(C[C@@H]1CC[C@@H](NS(=O)(=O)c2ccccc2)[C@@H](CO)O1)NCc1ccc(Cl)c(Cl)c1 | 20[16.7 µM] | 1
C[C@H]1CCCCO[C@@H](CN(C)C(=O)Nc2ccc(C(F)(F)F)cc2)[C@@H](C)CN([C@@H](C)CO)C(=O)c2cc(NC(=O)Nc3ccc(F)cc3)ccc2O1 | 7[16.7 µM] | 0
C/C=C/c1cnc2c(c1)C(=O)N([C@H](C)CO)C[C@H](C)[C@H](CN(C)S(=O)(=O)c1ccc(OC)cc1)O2 | 4[16.7 µM] | -5
C/C=C/c1ccc2c(c1)O[C@H](CN(C)C(=O)c1ccccc1)[C@@H](C)CN([C@@H](C)CO)S2(=O)=O | -2[16.7 µM] | 29
COCC#Cc1ccc2c(c1)O[C@H](CN(C)C(=O)C1CCC1)[C@@H](C)CN([C@@H](C)CO)S2(=O)=O | -18[16.7 µM] | 4
COCC(=O)N(C)C[C@@H]1Oc2ncc(C#C[C@H](C)O)cc2C(=O)N([C@@H](C)CO)C[C@H]1C | -37[16.7 µM] | -1
O=C(NCC[C@@H]1CC[C@@H](NS(=O)(=O)Cc2ccccc2)[C@H](CO)O1)C1CCOCC1 | 13[16.7 µM] | 10
C[C@@H]1CN([C@@H](C)CO)C(=O)c2cc(NS(C)(=O)=O)ccc2O[C@H]1CN(C)Cc1ccc(C(=O)Nc2ccccc2N)cc1 | 31[16.7 µM] | 9
C[C@@H]1CN([C@H](C)CO)C(=O)c2cc(NC(=O)Nc3ccc4c(c3)OCO4)ccc2O[C@@H](C)CCCCO[C@@H]1CN(C)Cc1ccc(Cl)c(Cl)c1 | 31[16.7 µM] | -17
O=C(C[C@@H]1CC[C@@H]2[C@H](COC[C@H](O)CN2C(=O)c2ccccc2)O1)NCc1ccc(-c2ccccc2)cc1 | 6[16.7 µM] | 9
COc1ccc(C#Cc2cnc3c(c2)C(=O)N([C@H](C)CO)C[C@H](C)[C@H](CN(C)C(=O)c2ccccc2F)O3)cc1 | 10[16.7 µM] | 18
C[C@@H]1CN([C@H](C)CO)C(=O)c2cc(-c3cccc(C#N)c3)cnc2O[C@@H]1CN(C)Cc1cncnc1 | -31[16.7 µM] | 6
C/C=C/c1ccc2c(c1)O[C@@H](CN(C)C(=O)c1ccccc1)[C@@H](C)CN([C@H](C)CO)S2(=O)=O | 12[16.7 µM] | 4
O=C(Nc1cccc(Cl)c1)N[C@H]1CC[C@@H](CCNC(=O)C2CCC2)O[C@H]1CO | 21[16.7 µM] | -14
O=C(Nc1ccc2c(c1)OCO2)N[C@H]1CC[C@H](CCNC(=O)C2CCOCC2)O[C@@H]1CO | 0[16.7 µM] | 13
C[C@@H]1CCCCO[C@H](CN(C)S(C)(=O)=O)[C@@H](C)CN([C@@H](C)CO)C(=O)c2cc(NC(=O)Nc3cccc4ccccc34)ccc2O1 | 6[16.7 µM] | 12
O=C(CCN1CCCCC1)NCC[C@H]1CC[C@H](NC(=O)C2CCOCC2)[C@H](CO)O1 | -15[16.7 µM] | 0
CCCC#Cc1cnc2c(c1)C(=O)N([C@@H](C)CO)C[C@@H](C)[C@@H](CN(C)CCC)O2 | 21[16.7 µM] | -7
Cc1cc(C(=O)Nc2cccc3c2O[C@H](CN(C)S(=O)(=O)c2ccc(F)cc2)[C@@H](C)CN([C@H](C)CO)C3=O)n(C)n1 | -29[16.7 µM] | 4
CO[C@@H]1CN(C)C(=O)c2ccc(NS(=O)(=O)c3ccccc3)cc2OC[C@@H](C)N(Cc2nccs2)C[C@@H]1C | -51[16.7 µM] | -4
CCC(=O)N1C[C@@H](O)COC[C@@H]2O[C@@H](CC(=O)NCC3CCCCC3)CC[C@H]21 | -11[16.7 µM] | -5
CO[C@@H]1CN(C)C(=O)c2cc(NS(=O)(=O)c3ccc(C)cc3)ccc2OC[C@@H](C)N(Cc2nccs2)C[C@@H]1C | -8[16.7 µM] | 4
CNC[C@@H]1Oc2ccc(NS(=O)(=O)c3cn(C)cn3)cc2CC(=O)N([C@@H](C)CO)C[C@H]1C | -10[16.7 µM] | -1
Cc1noc(C)c1NC(=O)N[C@@H]1C=C[C@H](CC(=O)N2CCN(C)CC2)O[C@H]1CO | -62[16.7 µM] | -3
C[C@H]1CN([C@@H](C)CO)C(=O)c2cccc(NC(=O)Nc3ccc(C(F)(F)F)cc3)c2O[C@H]1CN(C)C(=O)Nc1ccccc1 | -5[16.7 µM] | 2
Cc1ccc(S(=O)(=O)N(C)C[C@@H]2OCCCC[C@@H](C)Oc3ccc(NC(=O)C4CCCCC4)cc3C(=O)N([C@H](C)CO)C[C@@H]2C)cc1 | 10[16.7 µM] | 3
C[C@@H]1CCCCO[C@H](CN(C)Cc2ccccc2)[C@@H](C)CN([C@@H](C)CO)C(=O)c2cc(NS(=O)(=O)c3ccccc3)ccc2O1 | -35[16.7 µM] | 7
COc1ccc(NC(=O)Nc2ccc3c(c2)C(=O)N([C@H](C)CO)C[C@H](C)[C@H](CN(C)Cc2ccccc2)O3)cc1 | 9[16.7 µM] | -3

Next part
Molecule | Env fusion inh | UUG fidelity
CS(=O)(=O)N1[C@H](CO)[C@@H](c2ccc(C#Cc3cccc(F)c3)cc2)[C@@H]1C#N | 5[16.7 µM] | -9
Cc1ccc(S(=O)(=O)N(C)C[C@@H]2OCCCC[C@H](C)Oc3ccc(NC(=O)Nc4ccc(C(F)(F)F)cc4)cc3C(=O)N([C@H](C)CO)C[C@@H]2C)cc1 | 38[16.7 µM] | 4
C/C=C/c1ccc2c(c1)O[C@@H](CN(C)C(=O)Cc1ccccc1)[C@H](C)CN([C@@H](C)CO)S2(=O)=O | 1[16.7 µM] | 59
CCCC#Cc1ccc2c(c1)O[C@@H](CN(C)C(=O)c1ccccn1)[C@@H](C)CN([C@@H](C)CO)S2(=O)=O | 15[16.7 µM] | 4
COc1ccccc1C#Cc1cnc2c(c1)C(=O)N([C@H](C)CO)C[C@H](C)[C@@H](CN(C)C(C)=O)O2 | 1[16.7 µM] | 10
O=C(Cc1ccccn1)N[C@@H]1CC[C@@H](CCn2cc(-c3cccnc3)nn2)O[C@@H]1CO | 17[16.7 µM] | 22
C[C@@H]1CN([C@H](C)CO)S(=O)(=O)c2ccc(-c3ccncc3)cc2O[C@@H]1CN(C)C | 5[16.7 µM] | -18
N#C[C@@H]1N[C@@H](CO)[C@@H]1c1ccc(C#CC2CCCC2)cc1 | 11[16.7 µM] | -17
C[C@@H]1CCCCO[C@@H](CN(C)C(=O)Cc2ccccc2)[C@@H](C)CN([C@H](C)CO)C(=O)c2cc(NS(C)(=O)=O)ccc2O1 | 20[16.7 µM] | 17
